# Bioassay records as filed in PubChem.
# Yeast UUG start: modulators of start codon recognition fidelity in yeast | S. cerevisiae UUG-firefly luciferase reporter, luminescence/redox ratio | activity score, % at 18.7 µM | hit rate 0.13% among 350,000 | AID 602363;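 active means replicate mean at a twofold rise or more, about +100% in these data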;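 further: firefly luciferase made from a UUG start codon reports start codon fidelity; reporter light over untreated wells divided by growth signal over untreated wells; some hits fall short of that in this replicate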
# Env fusion inh: HIV envelope-mediated fusion inhibition | HeLa-JRFL Env/CEM21 cell fusion, luciferase | inhibition, % at 12.3 µM | hit rate 1.1% among 360,000 | AID 651610;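 active means mean replicate inhibition score of at least 50 and every replicate individually at or above 50; inconclusive means only one of the two criteria met; inactive means mean below 50 and not all replicates reaching 50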;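 further: 0% = plate neutral controls and 100% = maraviroc near 300 nM; one replicate is shown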
# * = called active by the depositor; ? = inconclusive; [ ] = dose if it differs, or a comment. An excerpt; rates above refer to the full screens.
Yeast UUG start | Env fusion inh | Structure
-14 | -11[16.7 µM] | C[C@H]1CN([C@@H](C)CO)C(=O)c2cc(C3=CCCC3)cnc2O[C@@H]1CN(C)C(=O)Nc1ccc(C(F)(F)F)cc1
-8 | -4[16.7 µM] | C[C@H](CO)N1C[C@H](C)[C@@H](CN(C)Cc2ccc3c(c2)OCO3)Oc2ccc(NS(=O)(=O)c3cn(C)cn3)cc2CC1=O
8 | 44[16.7 µM] | C[C@H](CO)N1C[C@H](C)[C@@H](CN(C)C(=O)Cc2ccccc2)Oc2ncc(-c3ccc(F)cc3)cc2C1=O
-8 | -24[16.7 µM] | CNC[C@@H]1Oc2ccc(NS(=O)(=O)c3c(C)noc3C)cc2CC(=O)N([C@@H](C)CO)C[C@@H]1C
-3 | 7[16.7 µM] | Cc1noc(C)c1S(=O)(=O)Nc1ccc2c(c1)C(=O)N([C@H](C)CO)C[C@@H](C)[C@@H](CN(C)S(C)(=O)=O)OCCCC[C@H](C)O2
9 | -27[16.7 µM] | C[C@H]1CN([C@@H](C)CO)C(=O)c2cccc(NC(=O)c3nc4ccccc4s3)c2O[C@H]1CN(C)Cc1ccc(Oc2ccccc2)cc1
5 | 12 | C[C@@H]1CN([C@@H](C)CO)C(=O)CCCn2cc(nn2)CO[C@H]1CN(C)S(C)(=O)=O
-5 | 8[16.7 µM] | COCC#Cc1ccc2c(c1)O[C@@H](CN(C)S(=O)(=O)c1cccc(OC)c1)[C@H](C)CN([C@@H](C)CO)S2(=O)=O
7 | 19[16.7 µM] | C[C@H]1CN([C@@H](C)CO)C(=O)c2cc(-c3ccc(F)cc3)cnc2O[C@@H]1CN(C)Cc1ccc(F)cc1
8 | -34[16.7 µM] | C[C@H](CO)N1C[C@H](C)[C@H](CN(C)Cc2ccc(-c3ccccc3)cc2)Oc2ccc(NC(=O)Cc3ccccc3)cc2CC1=O
-1 | -66[16.7 µM] | Cc1cc(C(=O)Nc2cccc3c2O[C@@H](CN(C)C(=O)Nc2cccc4ccccc24)[C@@H](C)CN([C@H](C)CO)C3=O)n(C)n1
-6 | 3[16.7 µM] | C[C@@H](NC(=O)C[C@H]1C=C[C@@H](NC(=O)C2CCC2)[C@@H](CO)O1)c1ccccc1
0 | 22[16.7 µM] | C[C@H](CO)N1C[C@H](C)[C@@H](CN(C)Cc2cccnc2)Oc2cc(C#CC3CCCC3)ccc2S1(=O)=O
-5 | 17[16.7 µM] | C[C@H]1CN([C@@H](C)CO)C(=O)Cc2cc(NC(=O)C3CCCCC3)ccc2O[C@@H]1CN(C)Cc1ccncc1
-1 | 8[16.7 µM] | C[C@H](CO)N1C[C@H](C)[C@H](CN(C)C(=O)Nc2ccc3c(c2)OCO3)Oc2ncc(/C=C/c3ccccc3)cc2C1=O
25 | -2[16.7 µM] | N#C[C@H]1[C@@H](c2ccc(C#CC3CC3)cc2)[C@@H](CO)N1S(=O)(=O)c1ccccc1
-8 | -48[16.7 µM] | COc1cc2c(cc1OC)CN(C(=O)[C@H]1[C@@H]3C(=O)O[C@@H](c4ccccc4)[C@@H](c4ccccc4)N3[C@@H](c3ccccc3OCCO)[C@]13C(=O)Nc1ccc(C#CCCO)cc13)CC2
4 | 3[16.7 µM] | C[C@H]1CN([C@@H](C)CO)C(=O)Cc2cc(NC(=O)CCN3CCOCC3)ccc2O[C@H]1CN(C)Cc1ccc(C(F)(F)F)cc1
14 | 2[16.7 µM] | COc1ccc(NC(=O)N(C)C[C@@H]2Oc3ncc(-c4ccc(C#N)cc4)cc3C(=O)N([C@H](C)CO)C[C@@H]2C)cc1
6 | -105[16.7 µM] | C[C@@H]1CN([C@@H](C)CO)S(=O)(=O)c2ccc(C#CC(C)(C)O)cc2O[C@@H]1CN(C)C(=O)C1CCCCC1

# 4 entries from above, bar-delimited:
molecule | Yeast UUG start | Env fusion inh
C[C@@H]1CN([C@@H](C)CO)C(=O)CCCn2cc(nn2)CO[C@H]1CN(C)S(C)(=O)=O | 5 | 12
C[C@H]1CN([C@@H](C)CO)C(=O)c2cccc(NC(=O)c3nc4ccccc4s3)c2O[C@H]1CN(C)Cc1ccc(Oc2ccccc2)cc1 | 9 | -27[16.7 µM]
C[C@H](CO)N1C[C@H](C)[C@H](CN(C)Cc2ccc(-c3ccccc3)cc2)Oc2ccc(NC(=O)Cc3ccccc3)cc2CC1=O | 8 | -34[16.7 µM]
C[C@H]1CN([C@@H](C)CO)C(=O)Cc2cc(NC(=O)CCN3CCOCC3)ccc2O[C@H]1CN(C)Cc1ccc(C(F)(F)F)cc1 | 4 | 3[16.7 µM]

# Returning to the listing, starting 3 compounds before the break.
Yeast UUG start | Env fusion inh | Structure
4 | 3[16.7 µM] | C[C@H]1CN([C@@H](C)CO)C(=O)Cc2cc(NC(=O)CCN3CCOCC3)ccc2O[C@H]1CN(C)Cc1ccc(C(F)(F)F)cc1
14 | 2[16.7 µM] | COc1ccc(NC(=O)N(C)C[C@@H]2Oc3ncc(-c4ccc(C#N)cc4)cc3C(=O)N([C@H](C)CO)C[C@@H]2C)cc1
6 | -105[16.7 µM] | C[C@@H]1CN([C@@H](C)CO)S(=O)(=O)c2ccc(C#CC(C)(C)O)cc2O[C@@H]1CN(C)C(=O)C1CCCCC1
6 | 9[16.7 µM] | C[C@@H]1CN([C@@H](C)CO)C(=O)c2cc(N(C)C)ccc2O[C@H]1CN(C)S(=O)(=O)c1cccs1
3 | -4[16.7 µM] | C[C@@H]1CCCCO[C@H](CN(C)S(=O)(=O)c2ccc(F)cc2)[C@@H](C)CN([C@@H](C)CO)C(=O)c2cc(NC(=O)Cc3ccccc3)ccc2O1
-16 | 7[16.7 µM] | C[C@@H]1CN([C@@H](C)CO)C(=O)Cc2cc(NC(=O)Nc3cccc4ccccc34)ccc2O[C@H]1CN(C)S(=O)(=O)c1ccc(F)cc1
2 | -4[16.7 µM] | CCC(=O)Nc1ccc2c(c1)C(=O)N(C)C[C@H](OC)[C@@H](C)CN(CCC(F)(F)F)[C@H](C)CO2
-2 | -21[16.7 µM] | C[C@@H]1CCCCO[C@@H](CN(C)S(=O)(=O)c2ccc(Cl)cc2)[C@@H](C)CN([C@@H](C)CO)C(=O)c2cc(NC(=O)c3ccncc3)ccc2O1
-8 | -11[16.7 µM] | C/C=C/c1cnc2c(c1)C(=O)N([C@@H](C)CO)C[C@H](C)[C@@H](CN(C)CC1CCCC1)O2
11 | -5[16.7 µM] | C[C@@H]1CN([C@H](C)CO)C(=O)Cc2cc(NS(=O)(=O)c3ccc(F)cc3)ccc2O[C@H]1CN(C)S(=O)(=O)c1ccc(Cl)cc1
-12 | -69[16.7 µM] | COc1cccc(CNC(=O)C[C@H]2CC[C@@H]3[C@H](COc4ccc(NC(C)=O)cc4C(=O)N3C)O2)c1
2 | -3[16.7 µM] | C[C@@H]1CN([C@H](C)CO)C(=O)c2cc(C#CC3CC3)cnc2O[C@H]1CN(C)C(=O)CC1CC1
29 | 20[16.7 µM] | C[C@H](CO)N1C[C@H](C)[C@@H](CN(C)Cc2ccccn2)Oc2ncc(C#CCc3ccccc3)cc2C1=O
5 | 4[16.7 µM] | C[C@@H]1CN([C@@H](C)CO)C(=O)Cc2cc(NS(=O)(=O)c3ccc(Cl)cc3)ccc2O[C@H]1CN(C)Cc1ccc(C(=O)Nc2ccccc2N)cc1
1 | 43[16.7 µM] | C[C@H]1CCCCO[C@H](CN(C)Cc2ccccc2)[C@@H](C)CN([C@@H](C)CO)C(=O)c2cc(NC(=O)Nc3ccccc3)ccc2O1
-10 | 10[16.7 µM] | C[C@@H]1CN([C@@H](C)CO)C(=O)c2cc(NC(=O)Nc3ccc(C(F)(F)F)cc3)ccc2O[C@@H](C)CCCCO[C@H]1CN(C)S(=O)(=O)c1ccccc1
1 | 0[16.7 µM] | CC(C)NC(=O)Nc1ccc2c(c1)C(=O)N([C@H](C)CO)C[C@H](C)[C@@H](CN(C)Cc1ccccc1)OCCCC[C@@H](C)O2
5 | -3[16.7 µM] | C[C@H]1CN([C@@H](C)CO)C(=O)c2cc(NC(=O)Nc3ccc(F)cc3)ccc2O[C@@H]1CN(C)CC1CCCCC1
-2 | 34[16.7 µM] | C[C@H]1CN([C@@H](C)CO)C(=O)c2cc(NC(=O)Nc3ccc4c(c3)OCO4)ccc2O[C@@H]1CN(C)Cc1ccccc1
-5 | -8[16.7 µM] | C/C=C/c1cnc2c(c1)C(=O)N([C@H](C)CO)C[C@@H](C)[C@@H](CN(C)C(=O)c1ccc3c(c1)OCO3)O2
15 | -21[16.7 µM] | C[C@H](O)C#Cc1cnc2c(c1)C(=O)N([C@@H](C)CO)C[C@H](C)[C@H](CN(C)C(=O)Nc1ccc(C(F)(F)F)cc1)O2
2 | 20[16.7 µM] | COc1cccc(-c2cn(CC[C@@H]3CC[C@@H](NC(=O)CN(C)C)[C@H](CO)O3)nn2)c1
32 | 11[16.7 µM] | CCCC#Cc1ccc([C@H]2[C@@H](C#N)N(C(=O)C3CCOCC3)[C@H]2CO)cc1

# Going on with the list:
Yeast UUG start | Env fusion inh | Structure
-4 | -9[16.7 µM] | C[C@@H]1CN([C@@H](C)CO)C(=O)Cc2cc(NC(=O)Nc3ccc4c(c3)OCO4)ccc2O[C@@H]1CN(C)S(=O)(=O)c1ccc(Cl)cc1
0 | -2[16.7 µM] | C/C=C/c1ccc2c(c1)O[C@@H](CN(C)C(=O)c1ccccn1)[C@H](C)CN([C@@H](C)CO)S2(=O)=O
-8 | -6[16.7 µM] | C[C@@H]1CN([C@H](C)CO)S(=O)(=O)c2ccc(Br)cc2O[C@@H]1CN(C)Cc1ccccn1
-9 | 16[16.7 µM] | CO[C@H]1CN(C)C(=O)c2cc(NS(=O)(=O)c3ccccc3C)ccc2OC[C@H](C)N(C)C[C@@H]1C
11 | -59[16.7 µM] | C[C@H](CO)N1C[C@H](C)[C@@H](CN(C)S(=O)(=O)c2cccs2)OCCCC[C@H](C)Oc2ccc(NS(=O)(=O)c3ccc(F)cc3)cc2C1=O
-13 | 9[16.7 µM] | C[C@H]1CN([C@@H](C)CO)C(=O)c2cc(NC(=O)Cc3cn(C)c4ccccc34)ccc2O[C@@H]1CN(C)S(=O)(=O)c1ccc(F)cc1
-8 | 7[16.7 µM] | C[C@H]1CCCCO[C@H](CN(C)S(=O)(=O)c2cccs2)[C@@H](C)CN([C@@H](C)CO)C(=O)c2cc(NC(=O)NC3CCCCC3)ccc2O1
-8 | 9[16.7 µM] | O=S(=O)(N[C@H]1CC[C@@H](CCn2cc(C3(O)CCCC3)nn2)O[C@@H]1CO)c1ccccc1
-10 | 14[16.7 µM] | C=CC1c2ccccc2/C=C(C(=O)OC)\C(C(=O)OC)=C/N1Cc1ccc(OC)cc1 (stereo not drawn)
-7 | 1[16.7 µM] | Cc1noc(C)c1NC(=O)N(C)C[C@H]1Oc2ccc(NC(=O)NC(C)C)cc2C(=O)N([C@@H](C)CO)C[C@@H]1C
-2 | -17[16.7 µM] | C[C@@H]1CCCCO[C@H](CN(C)C(=O)Nc2ccc(C(F)(F)F)cc2)[C@@H](C)CN([C@@H](C)CO)C(=O)c2cc(NC(=O)c3ccncc3)ccc2O1
7 | 7[16.7 µM] | COc1ccc(NC(=O)Nc2cccc3c2O[C@H](CN(C)Cc2ccc(Oc4ccccc4)cc2)[C@H](C)CN([C@H](C)CO)C3=O)cc1
-7 | -1[16.7 µM] | C[C@@H]1CN([C@@H](C)CO)C(=O)c2cc(NC(=O)C3CCCCC3)ccc2O[C@@H](C)CCCCO[C@H]1CN(C)S(=O)(=O)c1ccc(F)cc1
-5 | -42[16.7 µM] | C[C@H](CO)N1C[C@H](C)[C@H](CN(C)C(=O)Nc2ccccc2)OCCCC[C@H](C)Oc2ccc(NC(=O)NC3CCCCC3)cc2C1=O
7 | -36[16.7 µM] | COc1ccc(S(=O)(=O)N(C)C[C@H]2OCCCC[C@H](C)Oc3ccc(NC(=O)NC(C)C)cc3C(=O)N([C@H](C)CO)C[C@@H]2C)cc1
10 | 0[16.7 µM] | CCNC(=O)C[C@@H]1C=C[C@@H](NC(=O)C2CCC2)[C@H](CO)O1
20 | ? | COc1ccc(CN(C)C[C@H]2OCCCC[C@H](C)Oc3ccc(NC(=O)Nc4ccc(C(F)(F)F)cc4)cc3C(=O)N([C@@H](C)CO)C[C@@H]2C)cc1
-2 | 8[16.7 µM] | C[C@@H]1CN([C@H](C)CO)C(=O)c2cc(C#CCN(C)C)cnc2O[C@H]1CN(C)Cc1ccc(-c2ccccc2)cc1
-12 | 10[16.7 µM] | CN(C)C(=O)c1ccc(-c2ccc([C@@H]3[C@@H](C#N)N(C(=O)C4CCC4)[C@H]3CO)cc2)cc1
4 | 27[16.7 µM] | C[C@@H]1CN([C@@H](C)CO)C(=O)Cc2cc(NC(=O)CCN3CCOCC3)ccc2O[C@H]1CN(C)C(=O)Nc1ccc(F)cc1

# Carrying on.
Yeast UUG start | Env fusion inh | Structure
-14 | 1[16.7 µM] | C[C@@H]1CN([C@H](C)CO)C(=O)Cc2cc(NC(=O)Cn3cnnn3)ccc2O[C@H]1CN(C)S(C)(=O)=O
1 | -4[16.7 µM] | CC(C)NC(=O)N[C@H]1CC[C@H](CCn2cc(-c3ccccc3)nn2)O[C@H]1CO
8 | 17[16.7 µM] | C[C@@H]1CN([C@@H](C)CO)C(=O)c2cc(C#CC3CCCC3)cnc2O[C@@H]1CN(C)S(=O)(=O)c1cccc(F)c1
-14 | 12[16.7 µM] | CCCNC(=O)N[C@@H]1CC[C@@H](CCn2cc(C3CC3)nn2)O[C@@H]1CO
35 | 3[16.7 µM] | C[C@@H]1CN([C@@H](C)CO)C(=O)c2cc(NC(=O)C3CCCCC3)ccc2O[C@@H](C)CCCCO[C@H]1CN(C)C(=O)CCCN(C)C
-12 | -26[16.7 µM] | C[C@@H]1CN([C@@H](C)CO)C(=O)c2cc(-c3ccccc3F)cnc2O[C@@H]1CN(C)C
-4 | -8[16.7 µM] | O=C(Nc1ccc(F)cc1)N[C@@H]1CC[C@H](CC(=O)N2CCOCC2)O[C@H]1CO
17 | -55[16.7 µM] | Cc1noc(C)c1NC(=O)N(C)C[C@@H]1Oc2cc(C#CCC(C)C)ccc2S(=O)(=O)N([C@@H](C)CO)C[C@@H]1C
